Assay outcomes from PubChem BioAssay.
PrP 5UTR inh = suppresses PrP 5' UTR mRNA reporter expression; cell-based PrP 5' UTR mRNA reporter, plate reader; inhibition, % (no concentration beside the values); 0.35% of 340,000 active; AID 488862;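 active means every replicate at 50% or more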;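 further: 0 = median of the neutral control wells; tested in H4 reporter cells; numbers are from one replicate; inactives centre near -14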
ugtP null kill = kills S. aureus RN4220 lacking UgtP; 0.54% of 330,000 active; growth inhibition, % (test concentration not listed); S. aureus RN4220 ugtP deletion, OD600 growth, 16 h; some inactives read as strong as hits;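 active means z-score under -3 and OD600 up to 0.15 on both plates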;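 further: plate controls were untreated wells for no effect and antibiotic for full effect; wells of about 80 µL received 100 nL stock; the first replicate is given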
Bead autofluor = flagged as autofluorescent in microsphere protease counterscreen. 3.1% of 360,000 active. fluorescence intensity (test concentration not listed). compound autofluorescence counterscreen, microsphere flow cytometry; stronger effect = higher value;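 active means at least 3 SD above the mean of all compounds, about 16000 in these data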;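 further: 100 nL of 1 mM stock went into each well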
BJeLR viability = BJeLR cell viability loss | BJeLR (HRASV12) viability, CellTiter-Glo ATP luminescence, 48 h; reference of the scale not given here | inhibition, % (test concentration not listed) | 0.17% of 300,000 active;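 active means replicate mean above 50%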;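 further: 50 nL library stock added to about 25 µL; numbers are from one replicate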
Sa RN4220 lethal = S. aureus RN4220 growth inhibition | OD600, 16 h | inhibition, % (no concentration beside the values) | 0.33% of 330,000 active;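 active means z-score of -3 or lower and OD600 up to 0.18 on both plates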;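 further: plate controls were untreated cells for no effect and reference antibiotic for full effect; stock transfer was 100 nL into about 80 µL; one replicate is shown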
Mtb hypoxia inh = inhibitors of hypoxia-regulated fluorescent reporter in Mycobacterium tuberculosis; M. tuberculosis hypoxia-regulated fluorescent reporter, fluorescence; fluorescence inhibition, % (test concentration not listed); 0.1% of 300,000 active;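 active means 35 to 45% if threefold the growth effect, above 45% if 1.5-fold the growth effect; inactive means the rest, general growth blockers included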;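 further: wells of about 50 µL received 100 nL stock; 0% = vehicle wells and 100% = reference inhibitor wells; whole bacteria with a GFP reporter of the hypoxia response; strong numbers were not always called active; many hits fall short of the cut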
Mtb hypoxia inh growth = also measured in Mtb hypoxia inh; calls as there; growth inhibition, %; measured here: M. tuberculosis growth (absorbance);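 0% = vehicle and 100% = reference antibiotic; read after six days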
Starred values were filed as active, the others as inactive; & = joins results of further samples.

How did O=C(O)c1nn2c(c1Br)NC(c1ccccc1)CC2C(F)(F)F (stereo not drawn) do in these assays?
PrP 5UTR inh: -97; ugtP null kill: -9; Bead autofluor: 2743; BJeLR viability: -10; Sa RN4220 lethal: -0.3; Mtb hypoxia inh: -1; Mtb hypoxia inh growth: -4

How did CCOc1cc(/C=C2\COc3ccccc3C2=O)ccc1OCC(=O)N(C)C do in these assays?
PrP 5UTR inh: 10; ugtP null kill: 12; Bead autofluor: 2920; BJeLR viability: -3; Sa RN4220 lethal: 11; Mtb hypoxia inh: 13; Mtb hypoxia inh growth: 4

What do the screens show for `Cc1ccc(NC(=S)NNC(=O)Cn2nc([N+](=O)[O-])cc2C)cc1`?
PrP 5UTR inh: -24; ugtP null kill: 1; Bead autofluor: 10232; BJeLR viability: 16; Sa RN4220 lethal: 0.2; Mtb hypoxia inh: 2; Mtb hypoxia inh growth: -1

Results for Cc1ccc(NC(=O)CSc2ncccn2)cc1F ?
PrP 5UTR inh: -38; ugtP null kill: 1; Bead autofluor: 4606; BJeLR viability: -3; Sa RN4220 lethal: 0.3; Mtb hypoxia inh: 3; Mtb hypoxia inh growth: -6

What do the screens show for `CC(C)(O)C=CC[C@](C)(O)C1CC[C@]2(C)C1C(OC1OC(CO)C(O)C(O)C1O)CC1[C@@]3(C)CCC(O)C(C)(C)C3C(O)C[C@]12C` (stereo partly drawn)?
ugtP null kill: -1; Sa RN4220 lethal: -1.1; Mtb hypoxia inh: 2; Mtb hypoxia inh growth: 0

How did O=C(NCc1cnn(-c2ccc(F)cc2)c1)C1CCC(=O)N(C2CC2)C1 (stereo not drawn) do in these assays?
PrP 5UTR inh: -20; ugtP null kill: 11; Bead autofluor: 5872; BJeLR viability: 3; Sa RN4220 lethal: 2.2; Mtb hypoxia inh: 6; Mtb hypoxia inh growth: -2

Results for CCOc1ccc(NC(=O)C2CC(=O)OC2c2ccccc2)cc1 (stereo not drawn) ?
PrP 5UTR inh: -3; ugtP null kill: 4; Bead autofluor: 2256; BJeLR viability: -1; Sa RN4220 lethal: 1.2; Mtb hypoxia inh: 4; Mtb hypoxia inh growth: 6

Results for O=Nc1c(O)n(Cc2ccccc2)c2ccccc12 ?
PrP 5UTR inh: -7; ugtP null kill: 0; Bead autofluor: 4453; BJeLR viability: 12; Sa RN4220 lethal: 5.3; Mtb hypoxia inh: 5; Mtb hypoxia inh growth: 4

What do the screens show for `COc1nc(-c2ccc(C)cc2)ccc1-c1noc(-c2ccco2)n1`?
PrP 5UTR inh: -4; ugtP null kill: 6; Bead autofluor: 4596; BJeLR viability: 0; Sa RN4220 lethal: 13; Mtb hypoxia inh: 2; Mtb hypoxia inh growth: 9

Results for CCOC(=O)c1[nH]nc(C(=O)c2ccc(Br)cc2)c1O ?
PrP 5UTR inh: -30; ugtP null kill: -7; Bead autofluor: 18245*; BJeLR viability: 1; Sa RN4220 lethal: 2.8; Mtb hypoxia inh: 8; Mtb hypoxia inh growth: 1

How did COc1ccc(C[C@@H]2c3cc(O)c(OC)cc3CCN2C)cc1O do in these assays?
PrP 5UTR inh: 15; Bead autofluor: 2824; BJeLR viability: -5

What do the screens show for `CCc1cccc(C)c1NC(=S)N1CC2CC(C1)c1cccc(=O)n1C2` (stereo not drawn)?
PrP 5UTR inh: -24; ugtP null kill: 10; Bead autofluor: 2022; BJeLR viability: -1; Sa RN4220 lethal: 5.9; Mtb hypoxia inh: 6; Mtb hypoxia inh growth: 0

Sorted by formula weight (rising): some entries from above
What do the screens show for `COc1nc(-c2ccc(C)cc2)ccc1-c1noc(-c2ccco2)n1`?
PrP 5UTR inh: -4; ugtP null kill: 6; Bead autofluor: 4596; BJeLR viability: 0; Sa RN4220 lethal: 13; Mtb hypoxia inh: 2; Mtb hypoxia inh growth: 9

What do the screens show for `Cc1ccc(NC(=S)NNC(=O)Cn2nc([N+](=O)[O-])cc2C)cc1`?
PrP 5UTR inh: -24; ugtP null kill: 1; Bead autofluor: 10232; BJeLR viability: 16; Sa RN4220 lethal: 0.2; Mtb hypoxia inh: 2; Mtb hypoxia inh growth: -1

What do the screens show for `CC(C)(O)C=CC[C@](C)(O)C1CC[C@]2(C)C1C(OC1OC(CO)C(O)C(O)C1O)CC1[C@@]3(C)CCC(O)C(C)(C)C3C(O)C[C@]12C` (stereo partly drawn)?
ugtP null kill: -1; Sa RN4220 lethal: -1.1; Mtb hypoxia inh: 2; Mtb hypoxia inh growth: 0

Remaining list, next part
How did Cc1ccc(S(=O)(=O)N2CCN(C(=O)C3CCCO3)CC2)cc1 (stereo not drawn) do in these assays?
PrP 5UTR inh: -20; ugtP null kill: 7; Bead autofluor: 5456; BJeLR viability: -6; Sa RN4220 lethal: -2.4; Mtb hypoxia inh: -2; Mtb hypoxia inh growth: -13

How did CCCCN(S(=O)(=O)c1ccccc1)S(=O)(=O)c1ccccc1 do in these assays?
PrP 5UTR inh: 1; ugtP null kill: 24; Bead autofluor: 5013; BJeLR viability: 9; Sa RN4220 lethal: 10; Mtb hypoxia inh: 5; Mtb hypoxia inh growth: 19

How did COc1cccc(NC(=O)C2CCCN2C(=O)OCc2ccccc2)c1 (stereo not drawn) do in these assays?
PrP 5UTR inh: -10; ugtP null kill: 5; Bead autofluor: 4768; BJeLR viability: -2; Sa RN4220 lethal: -2.0

How did Cc1ccc(C(=O)Nc2ccccc2[N+](=O)[O-])cc1S(=O)(=O)N1CCOCC1 do in these assays?
PrP 5UTR inh: -11; Bead autofluor: 3532; BJeLR viability: 0

How did CN(C)c1ccc(NC(=S)NC(=O)/C=C/c2ccc(Cl)cc2)cc1 do in these assays?
PrP 5UTR inh: -64; ugtP null kill: 5; Bead autofluor: 1931; BJeLR viability: -4; Sa RN4220 lethal: -0.9

What do the screens show for `O=C(N/C(=C/c1cccc([N+](=O)[O-])c1)C(=O)N1CCCCCC1)c1ccco1`?
PrP 5UTR inh: -27; ugtP null kill: 7; Bead autofluor: 4201; BJeLR viability: 5; Sa RN4220 lethal: 0.5; Mtb hypoxia inh: 0; Mtb hypoxia inh growth: -4

How did COc1ccc(C(=O)NN=C(Cc2ccccc2)Cc2ccccc2)cc1OC do in these assays?
PrP 5UTR inh: 4; ugtP null kill: 3; Bead autofluor: 2583; BJeLR viability: 12; Sa RN4220 lethal: 5.6; Mtb hypoxia inh: 9; Mtb hypoxia inh growth: 2

How did Cc1ccc(C(=O)CCS(=O)(=O)c2ccc(Cl)cc2)cc1 do in these assays?
PrP 5UTR inh: -4; ugtP null kill: 6; Bead autofluor: 5716; BJeLR viability: -5; Sa RN4220 lethal: -0.2; Mtb hypoxia inh: 7; Mtb hypoxia inh growth: 2

Results for COc1ccc(N2CC(C(=O)OCC(=O)Nc3cccc(C)c3)CC2=O)cc1 (stereo not drawn) ?
PrP 5UTR inh: -21; ugtP null kill: 15; Bead autofluor: 3640; BJeLR viability: -1; Sa RN4220 lethal: -5.3; Mtb hypoxia inh: -10; Mtb hypoxia inh growth: -10

What do the screens show for `CCOC(=O)Cn1nc(C)c(NC(=O)COc2ccc(C)c(C)c2)c1C`?
PrP 5UTR inh: -32; ugtP null kill: 7; Bead autofluor: 4611; BJeLR viability: 26; Sa RN4220 lethal: 1.9; Mtb hypoxia inh: 9; Mtb hypoxia inh growth: -9

Results for COc1ccc(-n2c(=S)[nH]c3cc(C(=O)NCc4cccnc4)ccc3c2=O)c(OC)c1 ?
PrP 5UTR inh: -13; ugtP null kill: -8; Bead autofluor: 4071; BJeLR viability: -5; Sa RN4220 lethal: -0.1; Mtb hypoxia inh: -1; Mtb hypoxia inh growth: -4

How did CCN(CC)S(=O)(=O)c1ccc2nnn(O)c2c1 do in these assays?
PrP 5UTR inh: -3; ugtP null kill: 0; Bead autofluor: 3201; BJeLR viability: 17; Sa RN4220 lethal: -2.6; Mtb hypoxia inh: 6; Mtb hypoxia inh growth: 3

How did Cc1ccc(NC(=O)c2oc(=O)c3ccccc3c2-c2ccccc2)c(C)c1 do in these assays?
PrP 5UTR inh: -27; ugtP null kill: 6; Bead autofluor: 2069; BJeLR viability: -3; Sa RN4220 lethal: 14; Mtb hypoxia inh: 4; Mtb hypoxia inh growth: 2

What do the screens show for `O=C1N/C(=N/N=Cc2ccccc2)SC1(c1ccccc1)c1ccccc1`?
ugtP null kill: -3; Sa RN4220 lethal: 2.8; Mtb hypoxia inh: 12; Mtb hypoxia inh growth: 2

What do the screens show for `OCC1OC(n2cnc3c(NC4CCCC4)ncnc32)C(O)C1O` (stereo not drawn)?
PrP 5UTR inh: 5; ugtP null kill: -11&0; Bead autofluor: 6084; BJeLR viability: 1; Sa RN4220 lethal: 3.2&6.4; Mtb hypoxia inh: -4&7; Mtb hypoxia inh growth: -2&-1

What do the screens show for `COc1ccc(NC2CCCN(C(=O)c3csc(C(C)C)n3)C2)cc1OC` (stereo not drawn)?
PrP 5UTR inh: -15; ugtP null kill: 3; Bead autofluor: 6112; BJeLR viability: 8; Sa RN4220 lethal: 0.8; Mtb hypoxia inh: 4; Mtb hypoxia inh growth: -3

How did CC(=O)c1ccc(-c2cccc(-c3nc4ccccn4c3NC3CCCCC3)c2)cc1 do in these assays?
PrP 5UTR inh: -19; ugtP null kill: 13; Bead autofluor: 3560; BJeLR viability: -3; Sa RN4220 lethal: 19; Mtb hypoxia inh: -14; Mtb hypoxia inh growth: 4

What do the screens show for `O=C(C(=NO)n1cncn1)c1ccccc1Cl`?
ugtP null kill: 2; Sa RN4220 lethal: 1.8; Mtb hypoxia inh: 15; Mtb hypoxia inh growth: 14

What do the screens show for `O=C1c2ccccc2C(=O)N1Cc1cc(-c2ccccc2)no1`?
PrP 5UTR inh: -28; ugtP null kill: -4; Bead autofluor: 6115; BJeLR viability: 0; Sa RN4220 lethal: 4.2; Mtb hypoxia inh: 4; Mtb hypoxia inh growth: 4

Results for Oc1cc2c(cc1CN1CCN(c3cccc(C(F)(F)F)c3)CC1)CCC2 ?
PrP 5UTR inh: 1; ugtP null kill: -16; Bead autofluor: 4446; BJeLR viability: -14; Sa RN4220 lethal: 8.4

What do the screens show for `CC(=O)c1ccc(-c2cccc([C@H]3[C@@H]4C=CC[C@@H](C)[C@@H]4C(=O)N3Cc3ccccc3)c2)cc1`?
PrP 5UTR inh: -4; ugtP null kill: -7; Bead autofluor: 3888; Sa RN4220 lethal: -2.4; Mtb hypoxia inh: 1; Mtb hypoxia inh growth: 9

How did CC(C)Cc1ccc(C(C)C(=O)Nc2ccccc2O)cc1 (stereo not drawn) do in these assays?
PrP 5UTR inh: 1; ugtP null kill: 15; Bead autofluor: 4174; BJeLR viability: 18; Sa RN4220 lethal: 2.4; Mtb hypoxia inh: -6; Mtb hypoxia inh growth: 3

How did Clc1ccc(OCCn2ccnc2)c(Br)c1 do in these assays?
PrP 5UTR inh: -5; ugtP null kill: 0; Bead autofluor: 3396; BJeLR viability: -4; Sa RN4220 lethal: 1.5; Mtb hypoxia inh: 6; Mtb hypoxia inh growth: 9

What do the screens show for `COc1cc(OC)c(NC(=O)c2ccc3c(SCC(=O)O)c4c(nc3c2)CCCC4)cc1Cl`?
PrP 5UTR inh: -48; Bead autofluor: 4181; BJeLR viability: 14

How did Cc1ccc(S(=O)(=O)N2CCC(C(=O)N3CCC(C(=O)NCc4cccnc4)CC3)CC2)cc1 do in these assays?
PrP 5UTR inh: -32; ugtP null kill: 6; Bead autofluor: 7338; BJeLR viability: -3; Sa RN4220 lethal: 1.3; Mtb hypoxia inh: -3; Mtb hypoxia inh growth: -4

Results for COCCC(=O)N1CCC(n2nccc2NC(=O)c2ccccc2C)CC1 ?
PrP 5UTR inh: -17; ugtP null kill: 7; Bead autofluor: 5613; BJeLR viability: 8; Sa RN4220 lethal: 1.8; Mtb hypoxia inh: 1; Mtb hypoxia inh growth: -3

What do the screens show for `COc1ccccc1NC(=O)CC1Nc2ccccc2NC1=O` (stereo not drawn)?
PrP 5UTR inh: -21; ugtP null kill: -28; Bead autofluor: 9237; BJeLR viability: 10; Sa RN4220 lethal: 6.1; Mtb hypoxia inh: -2; Mtb hypoxia inh growth: 10

What do the screens show for `COc1cccc(C(C(=O)NCC2CCCO2)N(C(=O)Cn2nnc3ccccc32)c2ccc(NC(C)=O)cc2)c1` (stereo not drawn)?
PrP 5UTR inh: -12; ugtP null kill: 4; Bead autofluor: 3758; BJeLR viability: 6; Sa RN4220 lethal: 3.7; Mtb hypoxia inh: 2; Mtb hypoxia inh growth: 1
